Source: PubChem
CBX7 inh: CBX7 chromodomain binding inhibitors, primary screen, biochemical, AlphaScreen. AID 1224903, 2016. AlphaScreen His6-CBX7 / biotin-H3K27me3 peptide binding; stronger effect = lower value. 1.1% of 66,000 active. Chromobox protein homolog 7 (Homo sapiens), O95931. normalised signal (fraction of DMSO) (no concentration beside the values); in the data active = normalised signal below about 0.5;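 note: 100 nL library stock added to about 20 µL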
Target sequence (O95931 whole entry, looked up): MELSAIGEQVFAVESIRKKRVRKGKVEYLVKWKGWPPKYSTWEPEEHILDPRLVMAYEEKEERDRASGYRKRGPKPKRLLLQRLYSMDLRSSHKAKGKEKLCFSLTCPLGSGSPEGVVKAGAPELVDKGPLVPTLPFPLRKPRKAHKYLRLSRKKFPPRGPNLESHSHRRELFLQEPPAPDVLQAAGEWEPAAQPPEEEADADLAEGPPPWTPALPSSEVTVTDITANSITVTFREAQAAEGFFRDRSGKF
CBX7 inh z-score: also measured in CBX7 inh; calls as there; z-score; measured here: z-score of CBX7 signal; some inactives read as strong as hits; reference of the scale not given here;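 same signal on another scale; lower means less binding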
* marks the source's active call; other numbers are inactive results.

SMILES | CBX7 inh | CBX7 inh z-score
Cc1ccc(CC2C(=O)N(c3cc(Cl)ccn3)C(=O)C2C)cc1 (configuration not stated) | 1.06 | 0.169
Cc1cccc(N2CCN(c3nc4ccccc4nc3C(F)(F)F)CC2C)c1 (configuration not stated) | 1.21 | 6.36
CC(C(=O)NCc1cccnc1)C1Sc2ccccc2N(Cc2ccc(F)cc2Cl)C1=O (configuration not stated) | 0.805 | -3.8
CCC1=Nc2cc(C(=O)N3CCN(c4ncccn4)CC3)ccc2Sc2ccc(C)cc21 | 0.88 | -6.19
Cc1cccnc1NC(=O)Cn1nc(Cc2ccncc2)c2ccccc2c1=O | 1.61 | 6.36
CCc1cc(-c2[nH]ncc2-c2ccc3c(c2)OCCO3)c(O)cc1O | 0.686 | -1.36
Cc1cccc(C2NC(c3cccc(C)c3)C(C)C(=O)C2C)c1 (configuration not stated) | 1.37 | 4.19
CCCN(CCC)CCNC(=O)c1cnc(N2CCN(c3ccccn3)CC2)c2ccccc12 | 1.03 | 0.67
CCc1cccc(NC(=O)CCc2nc(-c3ccccc3F)no2)c1 | 0.906 | -1.44
COc1ccc2c(c1)-c1nc(NC(=O)c3cccc(Br)c3)sc1CC2 | 1.14 | 2.09
COc1ccc(-n2cc(-c3ccccc3)nc2SCC(=O)Nc2ccccc2Cl)cc1 | 0.748 | -8.28
CCOc1ccc(-c2[nH]ncc2Oc2ccccc2)c(O)c1 | 0.699 | -4.68
COc1ccccc1CNC(=O)c1ccc2c(c1)N(Cc1ccccc1F)C(=O)c1ccccc1S2 | 0.931 | -1.91
Cc1ccc(NC(=O)C2CCCN2S(=O)(=O)c2cccc3cccnc23)cc1C (configuration not stated) | 0.954 | -1.56
COc1ccc(CNC(=O)c2ccc3c(c2)N(Cc2cccc(C)c2)C(=O)CS3)cc1 | 0.995 | -0.198
COc1ccc(C2C(C(=O)NC3CCCCCC3)CCC(=O)N2c2ccc3c(c2)OCO3)cc1 (configuration not stated) | 1.04 | 1.67
CCOC(=O)c1c(C)n(-c2ccc(OC)cc2)c2cc(Br)c(OC)cc12 | 1.02 | 0.536
CCCN(CCC)C(=O)c1c[nH]c2ccc(S(=O)(=O)N(C)c3cc(C)ccc3C)cc2c1=O | 1.07 | 0.637
COc1cc2nc(/C=C/c3ccccc3F)n(-c3ccc(C)cc3C)c(=O)c2cc1OC | 1.13 | 6.54
O=C(CCC1(C(=O)O)CCC(=O)NC1)NCc1ccccc1 (configuration not stated) | 0.965 | -0.982
O=C(NCc1ccccc1)c1ccc(CNc2c(N3CCCCC3)c(=O)c2=O)cc1 | 0.959 | -0.095
Cc1ccc(C(=O)Nc2ccc3oc(-c4cccnc4)nc3c2)c(Cl)c1 | 0.994 | -0.109
CCOC(=O)c1cnc2c(C)cc(Cl)cc2c1Nc1ccc(Cl)cc1C | 1.18 | 0.779
CCn1c(=O)cc(OCC(=O)Nc2cccc(C#N)c2)c2ccccc21 | 0.8 | -3.28
CCn1cnc2sc(C(=O)N3CCC(=O)CC3)c(C)c2c1=O | 0.837 | -1.93

Record cards (already shown). Order of screens: CBX7 inh | CBX7 inh z-score
Shown for COc1ccccc1CNC(=O)c1ccc2c(c1)N(Cc1ccccc1F)C(=O)c1ccccc1S2 = 0.931 | -1.91
Shown for CCOC(=O)c1c(C)n(-c2ccc(OC)cc2)c2cc(Br)c(OC)cc12 = 1.02 | 0.536
Shown for CCCN(CCC)CCNC(=O)c1cnc(N2CCN(c3ccccn3)CC2)c2ccccc12 = 1.03 | 0.67
Shown for COc1ccc2c(c1)-c1nc(NC(=O)c3cccc(Br)c3)sc1CC2 = 1.14 | 2.09

Copied from the list:
CCCN(CCC)C(=O)c1c[nH]c2ccc(S(=O)(=O)N(C)c3cc(C)ccc3C)cc2c1=O | CBX7 inh = 1.07
Cc1ccc(C(=O)Nc2ccc3oc(-c4cccnc4)nc3c2)c(Cl)c1 | CBX7 inh = 0.994
CCOC(=O)c1cnc2c(C)cc(Cl)cc2c1Nc1ccc(Cl)cc1C | CBX7 inh z-score = 0.779
CCC1=Nc2cc(C(=O)N3CCN(c4ncccn4)CC3)ccc2Sc2ccc(C)cc21 | CBX7 inh = 0.88
O=C(NCc1ccccc1)c1ccc(CNc2c(N3CCCCC3)c(=O)c2=O)cc1 | CBX7 inh z-score = -0.095
COc1ccccc1CNC(=O)c1ccc2c(c1)N(Cc1ccccc1F)C(=O)c1ccccc1S2 | CBX7 inh z-score = -1.91
COc1ccc(CNC(=O)c2ccc3c(c2)N(Cc2cccc(C)c2)C(=O)CS3)cc1 | CBX7 inh z-score = -0.198

Next part
SMILES | CBX7 inh | CBX7 inh z-score
COc1ccc(Nc2nc(-c3ccc(Br)cc3)nc3ccccc23)cc1OC | 1.21 | 9.44
CCOc1ccc(Sc2cc(C(=O)NCc3cccc(OC)c3)c3ccccc3n2)cc1 | 1.06 | 2.01
Cc1cc(Br)ccc1OCc1nc(-c2ccncc2)no1 | 1.02 | 0.61
O=C(Nc1ccccc1-c1nc2ccccc2[nH]1)c1ccc(S(=O)(=O)N2CCc3ccccc3C2)cc1 | 0.952 | -0.0567
COc1ccc(-c2nc3cnccn3c2Nc2ccccc2)cc1 | 1.23 | 2.52
COc1ccc(-c2c(C)nn3c(N4CCC(C(=O)N5CCCCC5)CC4)cc(C)nc23)cc1OC | 1.03 | 0.0642
Cc1ccc(-c2nc3cc(NC(=O)c4ccc(Cl)cc4Cl)ccc3o2)cc1 | 1.06 | 0.436
O=C(CC1Sc2ccccc2NC1=O)Nc1cccc(F)c1 (configuration not stated) | 0.948 | -0.663
O=C(NCCc1nc2ccccc2[nH]1)c1ccc(F)cc1 | 1.05 | 1.98
O=C(Nc1ccc2oc(-c3ccncc3)nc2c1)c1ccccc1F | 1.12 | 2.12
O=C(NCc1cccs1)C1CC(=O)N(c2ccc(F)c(Cl)c2)C1 (configuration not stated) | 1.01 | 0.448
CCCSCCCNC(=O)CN1C(=O)COc2ccc(S(=O)(=O)N3CC(C)CC(C)C3)cc21 (configuration not stated) | 0.989 | -0.136
Cc1ccc(-c2csc(NC(=O)CO)n2)cc1 | 1.08 | 0.616
Clc1ccc(Nc2nc(NCCCN3CCOCC3)ns2)cc1 | 1 | 0.0105
O=C1COc2ccccc2CN1c1ccccc1 | 1.17 | 1.67
CCCCOc1ccc(C2C(=O)N(C3CCCCC3)CC(=O)N2Cc2ccccc2)cc1 (configuration not stated) | 1.15 | 0.616
CCOc1ccc2c(c1)c(=O)c(S(=O)(=O)c1ccccc1)cn2CC(=O)Nc1ccc(OC)cc1 | 0.969 | -0.43
COc1ccc(OC)c(CN2CCN(Cc3ccc4ccccc4c3)CC2)c1 | 0.923 | -1.9
NC(=O)Cn1c(=O)n(CCc2c[nH]c3ccccc23)c(=O)c2cccnc21 | 1.07 | 2.14
Cc1nc2cc(-c3ccc(Cl)cc3)nn2c(C)c1CCC(=O)NCCCOC(C)C | 1.03 | 0.617
CC1=Nc2cc(C(=O)NC3CCCCCC3)ccc2Sc2ccc(C)cc21 | 0.94 | -1.24
Cc1cccc(Nc2nnc(-c3ccc(C)c(S(=O)(=O)N4CCN(C)CC4)c3)c3ccccc23)c1 | 0.792 | -0.234
CC1CCCCC1NC(=O)C(C)C1Sc2ccccc2NC1=O (configuration not stated) | 1.01 | 0.152
COc1ccc(-n2nc3c(c2NC(=O)c2cc(C)cc(C)c2)CS(=O)(=O)C3)cc1 | 0.912 | -1.01
COc1cccc(CNC(=O)c2cc(=O)[nH]c3ccc(S(=O)(=O)N4CCCCC4C)cc23)c1 (configuration not stated) | 0.875 | -1.48
Further records follow:
SMILES | CBX7 inh | CBX7 inh z-score
Fc1ccc(NCc2cn3cccnc3n2)cc1 | 0.867 | -1.58
O=C(CN1C(=O)CC(c2ccccc2)Sc2ccccc21)Nc1ccc(F)cc1 (configuration not stated) | 1.04 | 0.691
CC(C)NC(=O)c1ccc2c(c1)N(Cc1ccccc1F)C(=O)c1ccccc1S2(=O)=O | 1.07 | 2.06
O=C(O)c1ccccc1Nc1ccnc(N2CCOCC2)n1 | 1.01 | 0.122
CCOc1ccccc1N(C)C(=O)c1nn(-c2cccc(OC)c2)c(=O)c2ccccc12 | 0.74 | -3.58
CC(C)NC(=O)C(=O)c1c(-c2ccccc2)[nH]c2ccccc12 | 0.929 | -1.14
COc1ccc(NC(=O)CCn2nc(-c3ccccc3)c3ccccc3c2=O)cc1C(N)=O | 0.951 | -1.36
CCCCN(C)CCNC(=O)CN1C(=O)CSc2ccc(S(=O)(=O)N3CCCCC3)cc21 | 1 | 0.0662
Cc1ccc(N2C(=O)CC(C(C)c3ccccc3)C2=O)c(Br)c1 (configuration not stated) | 1.21 | 1.53
Cc1ccc(CCN2CC(C(=O)NC3CC3)CC2=O)cc1 (configuration not stated) | 1.03 | 1.46
N=c1n(CCOc2ccccc2Cl)c2ccccc2n1CC(N)=O | 0.981 | -0.574
O=C(Cc1ccc(NC2=NC3CS(=O)(=O)CC3S2)cc1)NCCc1ccc(Cl)cc1 (configuration not stated) | 0.932 | -0.737
CCc1ccccc1NC(=O)c1cc(-c2cccc(OC)c2)on1 | 1.03 | 0.318
O=C(NCc1cccnc1)C1CCC(=O)N1Cc1ccccc1Cl (configuration not stated) | 1.06 | 1.62
Cc1nnc2ccc(N3CCC(N(C)C4CCCC4)CC3)nn12 | 0.989 | -0.297
CC1CCN(CCCNC(=O)c2n[nH]c(=O)c3ccccc23)CC1 | 1.01 | 0.024
COc1ccc(CN(C(=O)c2ccc(OC)cc2)C2CCS(=O)(=O)C2)cc1 (configuration not stated) | 0.92 | -0.0794
CC1(C(=O)NCc2cccnc2)CCC(=O)N1Cc1cccs1 (configuration not stated) | 1.03 | 0.602
Cc1cc(C)c(NC(=O)c2cnc3sccn3c2=O)c(C)c1 | 1.06 | 0.685
Cc1ccc(CN2C(=O)CCC2C(=O)NCCc2ccccc2)cc1 (configuration not stated) | 1.08 | 1.59
O=C(Nc1cccc(C(F)(F)F)c1)C1CCN(S(=O)(=O)c2cccc3nsnc23)CC1 | 0.977 | -0.639
Cc1cccn2cc(-c3ccc(S(=O)(=O)N4CCCCCC4)cc3)nc12 | 1.03 | 1.17
O=C(NCCc1nc2ccccc2[nH]1)c1cccc(Cl)c1 | 1.02 | 0.816
CCOC(=O)c1oc2ccccc2c1NC(=O)c1ccc(S(=O)(=O)N(C)Cc2ccccc2)cc1 | 1.05 | 1.92
COc1ccccc1C(=O)N(Cc1ccc(N(C)C)cc1)C1CCS(=O)(=O)C1 (configuration not stated) | 1.1 | 0.904
Going on with the list:
SMILES | CBX7 inh | CBX7 inh z-score
Fc1ccc(-c2[nH]c(C3CC=CCC3)nc2-c2ccccc2)cc1 (configuration not stated) | 0.957 | -1.07
COc1ccc(CCNC(=O)CCNS(=O)(=O)c2ccc3c(c2)CCN3C(C)=O)cc1OC | 0.891 | -2.03
Cc1ccc(-n2nc(C)c3c(C)c(CCC(=O)N4CCCC4)c(C)nc32)cc1 | 1.32 | 2.41
CCN(CC)CCNC(=O)Cn1cnc2sc(C)c(S(=O)(=O)N3CCC(C)CC3)c2c1=O | 1.2 | 2.02
NS(=O)(=O)c1ccc(NC(=O)CSc2nc3cc(Cl)ccc3s2)cc1 | 1.02 | 0.172
Cc1cccc(-c2nc(NCCN3CCOCC3)c3ccccc3n2)c1 | 0.998 | -0.0704
COc1ccc(NC(=O)Cn2cc(S(=O)(=O)c3ccc(C)c(C)c3)c(=O)c3ccccc32)cc1 | 0.945 | -0.795
COc1ccc(-n2nc(C(=O)NCC(=O)Nc3ccc4c(c3)OCCO4)c3ccccc3c2=O)cc1 | 1.07 | 1.5
O=C1CC(c2ccc(OCc3ccccc3)cc2)C2=C(CCCC2=O)N1 (configuration not stated) | 1.06 | 0.378
CCOC(=O)c1cnc2c(C)cc(Cl)cc2c1Nc1cccc(OC)c1 | 1.12 | 0.427
Cc1ccc(CCNC(=O)C2CCN(S(=O)(=O)c3cccnc3)CC2)cc1 | 1.04 | 1.41
Cn1nc(-c2ccc(N3CCOCC3)c(NS(=O)(=O)c3ccccc3)c2)c2ccccc2c1=O | 1.09 | 2.36
Cc1ccccc1Nc1c(-c2ccsc2)nc2cccc(C)n12 | 0.867 | -3.55
Cc1oc(-c2ccc(Cl)cc2)nc1CN1CCC(C(=O)NC2CCCCCC2)CC1 | 1.14 | 1.96
O=C(Nc1nnc(CCS(=O)(=O)c2ccc(Br)cc2)s1)c1ccc(Cl)cc1 | 1.04 | 1.63
COc1ccc(C)cc1Nc1nc(-c2ccccc2F)nc2ccccc12 | 1.95 | 5.97
CCc1ccc(OCc2nnc(NC(C)=O)s2)cc1 | 1.21 | 0.872
Cc1cccc(-c2nnc(NC(=O)c3ccc(C(C)(C)C)cc3)s2)c1 | 1.15 | 1.34
Cc1nc2ncnn2c(C)c1CCC(=O)Nc1ccc(Cl)cc1 | 1.03 | 0.587
CCOc1ccc(-c2csc(NC(=O)CCCOc3ccc(CC)cc3)n2)cc1 | 0.991 | -0.0101
CC(CCc1ccccc1)NC(=O)c1ccc2c(c1)ncn2C1CCCC1 (configuration not stated) | 0.841 | -1.83
Cc1ccc(-c2nnc(Nc3ccccc3)c3ccccc23)cc1S(=O)(=O)N1CCN(C)CC1 | 0.954 | -0.0519
CC1=Nc2cc(C(=O)NCc3cccnc3)ccc2Sc2ccc(C)cc21 | 1.02 | 0.767
OCc1nc2ccccc2n1CCCOc1ccccc1 | 0.923 | -0.81
Cc1cc(=O)n2nc(N3CCC(C(=O)NCC4CCCO4)CC3)sc2n1 (configuration not stated) | 1.03 | 1.46
COc1ccc(-c2noc(COc3ccccc3OC)n2)cc1OC | 1.07 | 1.09
COc1ccc(C2CC(=O)N(CC(=O)NC3CCCC3)c3ccccc3S2)cc1OC (configuration not stated) | 0.923 | -1.1
O=S(=O)(c1cnc[nH]1)N1CCC(Cc2ccccc2)CC1 | 0.908 | -1.51
COc1cccc(C2CC(=O)NC3=C2C(=O)CCC3)c1 (configuration not stated) | 1.04 | 0.518

Not all compounds are listed, so the mix of outcomes need not match the whole.
